From PubChem
VACV mCherry inh: qHTS for Stage-Specific Inhibitors of Vaccinia Orthopoxvirus: mCherry Reporter Primary qHTS; actives 0.63% (n = 310,000); Potency, µM (series often up to 36.5 µM), for the others: at the top dose activity change, negative = inhibition, hits mostly inhibitors; Vaccinia virus mCherry reporter infection, fluorescence; about a quarter of the inactives have no number; active = well fitted inhibition curve with a large enough effect; inconclusive = small, poorly fitted or top-dose-only effect; inactive = no such curve, though single readings can be large or run the other way; tested in A549 cells; note: nearly all actives have a fitted effect of over 35% in size; inactives centre near -10
VACV Venus inh: qHTS for Stage-Specific Inhibitors of Vaccinia Orthopoxvirus: Venus Reporter Primary qHTS | actives 0.46% (n = 330,000) | Potency, µM (top dose mostly 36.5 µM), without a hit: at the highest dose activity change, negative = inhibition, hits mostly inhibitors | AID 720580, 2013 | Vaccinia virus Venus reporter expression, fluorescence; active means well fitted inhibition curve with a large enough effect; inconclusive means small, poorly fitted or top-dose-only effect; inactive means no such curve, though single readings can be large or run the other way; tested in A549 cells; note: nearly all actives have a fitted effect of over 30% in size; inactives centre near -10
The depositor's hits bear a star; i = inactive; ? = inconclusive; / = no result given; ! = not confirmed by another sample; [ ] = remark or other dose. % is set by controls: 0 for no effect and ±100 for the full control effect; potency is the fitted concentration of half-maximal effect.

SMILES	VACV mCherry inh	VACV Venus inh
Cc1nc(SCC(O)CO)c([N+](=O)[O-])[nH]1 (configuration not stated)	6%	8%
CCOC(=O)C[n+]1cccc(Br)c1	-1%	-7%
Cn1c(SCC(=O)c2ccccc2)nnc1-c1cccc(N)c1	-15%	-14%
C[C@H]1CN([C@@H](C)CO)C(=O)CCCn2nncc2CO[C@@H]1CN(C)S(=O)(=O)c1ccc2ccccc2c1	-22%	-20%
C=CCn1c(SCC(=O)Nc2cc(C)on2)nc2sc3c(c2c1=O)CCCC3	-10%	-15%
c1ccc(-c2nc(-c3cnc4ccccc4n3)cs2)cc1	-15%	-10%
CC(C)CNS(=O)(=O)c1ccc(Br)cc1N1CCC[C@@H]1CO	-13%	-10%
CCc1ccc(NC(=O)c2cc(CN3CCOCC3)on2)cc1	-8%	-6%
COc1cc(C(=O)N2CCN(C(=O)CC(C)C)CC2)cc(OC)c1OC	-1%	-19%
O=C(NC1CCOc2ccccc21)c1ccccn1 (configuration not stated)	-7%	4%
CCC1=NN(C(=O)c2cccnc2)C(O)(C(F)(F)F)C1 (configuration not stated)	i	-6%
CC(C)(C)n1nc2c(c1NC(=O)c1ccc(Br)o1)CS(=O)C2 (configuration not stated)	-11%	-6%
Cc1cc2c(cc1S(=O)(=O)CCC(=O)N1CCN(c3ccccc3)CC1)OCC(=O)N2	3%	0%
Cc1cc(-c2nnc(SCC(=O)Nc3c(C)cccc3C)n2N)n[nH]1	-1%	-16%
O=C(Nc1ncc(Cc2ccc(SC(F)F)cc2)s1)c1ccc(OC(F)F)cc1	-1%	?
COc1ccc2[nH]c(=O)c(COC(=O)c3ccco3)cc2c1	-19%[1.46 µM]	-25%
Cc1c(-c2cccc(Cl)c2)nc2ccccc2c1C(=O)OC/C(O)=C(\C#N)c1nc2ccccc2[nH]1	i	-4%
Nc1nc(NC(=O)c2cccnc2)nn1-c1ccccc1	/	9%
CC(C)NC(=O)c1ccccc1NC(=O)CCS(=O)(=O)Cc1ccccc1	i	-12%
CCc1ccc(S(=O)(=O)c2cn(C)c3cc(F)c(F)cc3c2=O)cc1	-25%	-22%
CCOc1cc(CN2CCOCC2)cc(C(C)=O)c1	/	-5%
CCOC(=O)c1ccc(NC(=O)CSc2nc3c(c(=O)n2CC)SC(C)C3)cc1 (configuration not stated)	0%	-9%
COc1ccc(N(CC(=O)N/N=C/c2ccc(OC3CSC3)cc2)S(=O)(=O)c2ccccc2)cc1	-22%	-19%
c1coc(CNc2ncnc3[nH]ncc23)c1	6.3µM*!	?
COc1ccc(OC)c(N2C(=O)CC(Cc3ccc(C)cc3)C2=O)c1 (configuration not stated)	i	-7%
Additional results:
SMILES	VACV mCherry inh	VACV Venus inh
COc1ccccc1NC(=O)CSc1nnc(NC(=O)C2CC2)s1	46%[activator]	5%
O=C1[C@@H](Oc2ccccc2)[C@@H](c2cnc3ccccc3c2)N1c1ccccc1	-1%	-21%
COCCc1nc2ccc(C(=O)N(C)Cc3cccc(-n4nc(C)cc4C)c3)cc2o1	i	-8%
C[n+]1cccc(/C=N/NC(=O)CC23CC4CC(CC(C4)C2)C3)c1	-5%	-12%
CCN1C(=O)/C(=C\N(C)C)NC1=S	i	-12%
Cc1cccc(NC(=O)CSC2=Nc3ccccc3C3=NC(CCC(=O)NCc4ccco4)C(=O)N23)c1 (configuration not stated)	0%	-2%
C=CCOC(=O)Nc1c(C(=O)OC)[nH]c2ccc(Cl)cc12	/	?
COc1ccccc1OCCNC(=O)CCS(=O)(=O)c1ccccc1	i	-11%
CN(CCO)S(=O)(=O)c1ccc2c(c1)C(=NO)c1cc(S(=O)(=O)N(C)CCO)ccc1-2	i	-9%
CC1(C)CC(=O)c2cc(OCC(=O)NCCCN3CCN(c4ccccc4F)CC3)ccc2O1	-4%	-21%
Cc1ccc(-c2cc(N)n[nH]2)cc1	-18%	-14%
Cc1cc(OCCSc2nnc(-c3cccs3)n2C)ccc1Cl	-23%	-23%
COCCCNC(=O)CCCCn1c(=O)c2ccccc2n(CC(=O)Nc2ccc(C)cc2C)c1=O	-8%	-11%
COCOCCn1cc(CN2CCS(=O)(=O)N(Cc3ccc(-c4ccc(Cl)cc4)cc3)C(C(C)C)C2=O)nn1 (configuration not stated)	-10%	-19%
COc1cc(C(=O)N2CCNC(=O)C2CC(=O)Nc2ccc(C)c(C)c2)cc(OC)c1OC (configuration not stated)	1%	6%
O=C(CSc1nnc(-c2ccc(C(F)(F)F)cn2)s1)c1ccc(Cl)cc1	0%	-18%
Cc1c(CC(=O)NCCC(=O)O)c(=O)oc2cc3occ(-c4ccccc4)c3cc12	-10%	-15%
CCOc1ccc2c(O)csc2c1	/	-10%
N#C/C(=C\c1c(Oc2ccccc2Cl)nc2ccccn2c1=O)C(=O)NC1CCS(=O)(=O)C1 (configuration not stated)	i	-7%
O=C(/C=C/c1ccccc1[N+](=O)[O-])NCc1cccnc1	-22%	-8%
COc1cc(C)ccc1S(=O)(=O)NC(=O)C1(C)CCN1C(=O)C1(c2ccc(Cl)cc2)CCC1 (configuration not stated)	13%	1%
Cc1cc2c(cc1S(=O)(=O)N(CCN(C)C)Cc1ccco1)OCC(=O)N2	-2%	-3%
CCOC(=O)C(C)Sc1nc2c(cnn2-c2ccc(F)cc2)c(=O)[nH]1 (configuration not stated)	-17%	-17%
COc1ccc2c(c1)C(C)(Cc1ccc(C(=O)c3ccccc3)cc1)C(=O)N2 (configuration not stated)	i	-7%
CCN(CC(=O)Nc1ccc(OC)cc1)C(=O)c1cc2c(s1)CCCCC2	-26%	-23%
(next part)
SMILES	VACV mCherry inh	VACV Venus inh
CCn1c(C(=O)N2CCC(C(=O)N3CCN(c4cccc(C)c4C)CC3)CC2)cc2sccc21	-30%	?
COc1ccc(N2CCN(C(=O)C3CCN(S(=O)(=O)c4ccc(C)cc4)CC3)CC2)cc1	i	4%
CSc1ncccc1C(=O)OCC(=O)N(C)C1CCS(=O)(=O)C1 (configuration not stated)	-3%[1.46 µM]	-19%
COc1ccc(OC)c(NC(=O)CSC2=Nc3ccccc3C3=NC(CCC(=O)NCc4ccccc4)C(=O)N23)c1 (configuration not stated)	-19%	-8%
CCC(C)(C)NC(=O)C(c1ccc(C)o1)N(Cc1ccc2c(c1)OCO2)C(=O)c1snc(C(N)=O)c1N (configuration not stated)	-8%	-5%
CCOc1cc(N2CCOCC2)c(OCC)cc1NC(=O)[C@H](C)NC(=O)c1ccco1	-6%	-3%
CCCn1c(-c2ccc[nH]c2=O)nc2cc(C)c(C)cc21	i	-11%
Cc1ccc(CCNC(=O)CSCc2nc(-c3ccc(C)cc3)oc2C)cc1	i	-9%
CN(Cc1ccccc1)C(=O)c1ccc(COc2ccccc2)cc1	i	-7%
COc1ccc(/C=C/C(=O)NC(=S)NNC(=O)c2cccnc2)cc1OC	-14%	-12%
CC1(C(=O)NCc2cccnc2)CCC(=O)N1CCc1ccccc1 (configuration not stated)	-8%	-2%
COc1cccc(-c2cc(C(=O)N3CCN(Cc4ccccc4)CC3)no2)c1	i	-14%
COc1cc(NC(=O)CCN2CC(C)OC(C)C2)cc(OC)c1 (configuration not stated)	i	-5%
CCc1nc(SCC(=O)Nc2ccccc2)c2c(=O)n(C)c(=O)n(C)c2n1	-12%	-11%
CCOC(=O)C1CCC(CN(Cc2ccc(Cl)cc2)S(=O)(=O)c2cc(Cl)cc(Cl)c2)CC1 (configuration not stated)	3%	4%
Cc1ccc(OCc2ccc(C(=O)N3CCOCC3)cc2)cc1C	-17%	-16%
CCNS(=O)(=O)c1ccc(CCC(=O)NCCc2ccc(OC)cc2)cc1	-26%	-9%
COC(=O)c1ccc(CSc2n[nH]c(=S)s2)o1	/	-13%
CC1(c2nnnn2C2CCCC2)CCC(=O)N1c1ccc2c(c1)OCCO2 (configuration not stated)	-14%	-14%
CN(C)c1ccc(CNC(=O)C2CCCN(S(=O)(=O)c3ccc4c(c3)CCCC(=O)N4)C2)cc1 (configuration not stated)	-25%	-29%
CCCCCC(=O)Nc1ccc(Cc2ccncc2)cc1	/	-10%
CC(=O)Nc1ccc(CN(C)c2c(C)nc3ccc(C(=O)NCCCN4CCCC4=O)cn23)cc1	2%	8%
COc1ccc(CCNC(=O)CNC(=O)N2CC(=O)Nc3ccccc32)cc1	i	-12%
Cc1ccnc(-n2c(C)cc(C=C3C(=O)N(C)C(=S)N(C)C3=O)c2C)c1	3%	28%
Cc1ccc(C(=O)N2CCNC(=O)C2CC(=O)Nc2ccc(F)cc2)cc1C (configuration not stated)	i	0%
Next part
SMILES	VACV mCherry inh	VACV Venus inh
Cc1cc(C)c2nc(N3CCCC(C(=O)N4CCC(C(N)=O)CC4)C3)sc2c1 (configuration not stated)	?	-28%
O=C(CCS(=O)(=O)Cc1ccccc1)Nc1nnc(C(F)(F)F)s1	-25%	-2%
Cc1csc(N2CCN(c3cc4c(cc3Cl)nc(-c3ccncc3)n4CCCN3CCCC3)CC2)n1	-25%	?
Fc1cnc(N2CCOCC2)nc1N1CCOCC1	i	-13%
CC(Oc1ccccc1)C(=O)OCC(=O)NC(=O)NCc1ccco1 (configuration not stated)	-11%[1.46 µM]	-5%
COc1cc(-c2csc(NC3CCCCC3)n2)cc(OC)c1OC	-28%	18%
COc1ccc(C(=O)c2oc3ccccc3c2NC(=O)c2nc(SC)ncc2Cl)cc1Cl	-4%	-1%
CCN1C(=O)CC2CCCC1C2 (configuration not stated)	-17%	-5%
CC1=NNC(=O)c2ccccc2O1	-8%	-2%
O=C(CSc1nnc(CNC(=O)c2ccccc2)n1-c1ccc(F)cc1)Nc1ccccc1F	-11%	-9%
COCCCn1c(SCC(=O)NC2CCCCC2)nc2ccccc2c1=O	-3%	-4%
CCOC(=O)C1CCCN(C2CCN(Cc3nc(Cc4ccccc4)no3)CC2)C1 (configuration not stated)	-22%	-4%
Cc1ccc(C2CC2c2n[nH]c(=S)n2-c2cccc(C)c2)cc1 (configuration not stated)	-16%	-25%
CCCCCC/C(=N/O)c1ccccn1	?	?
O=C(CNc1ccc(Cl)cc1)c1ccc(Br)cc1	-1%	-8%
CN(C(=O)c1ccc(C#N)cc1)c1nnc(-c2ccccn2)s1	-4%	1%
Cc1cc(C)n(-c2ccc3nncn3n2)n1	i	-3%
CC1CCN(Cc2ccc(NC(=O)CC3Oc4ccccc4NC3=O)cc2)CC1 (configuration not stated)	20%	5%
Cc1ccc(NC(=O)c2ccc(CNS(=O)(=O)c3ccc4c(c3)C(C)(C)C(=O)N4C)cc2)cc1C	-27%	-24%
CCCCC(CC)CNC(=O)CCS(=O)(=O)c1cccc2nsnc12 (configuration not stated)	i	-15%
CN(C)c1nc(N)nc(CSc2nnnn2-c2ccccc2)n1	-12%	-18%
CCn1c(-c2csc(C(C)C)c2)n[nH]c1=S	-17%	-11%
CCOc1ccc(-c2nnc(SCC(=O)NC3CCCCC3)nc2-c2ccc(OCC)c(OC)c2)cc1OC	-9%	-15%
Nc1ccn(-c2ccccc2)c(=O)c1	/	-9%
CCOCCN(C(=O)c1ccccc1Cl)c1ccccc1	-13%	-15%
Additional compounds follow.
SMILES	VACV mCherry inh	VACV Venus inh
Cc1ccc(C(C)n2cc(C(=O)NCc3ccncc3)nn2)cc1 (configuration not stated)	-22%	-12%
Cc1c(Cl)cccc1NC(=S)NCCN1CCOCC1	i	-5%
CSc1ccccc1NC(=S)Nc1cc(C)cc(C)c1	-3%	-17%
Cc1cccc(-c2nc(SCCCOc3cc(C)c(Cl)c(C)c3)n3[nH]c(=O)cc3n2)c1	2%	0%
COc1ccc(CCN2C(=O)N(c3ccc(OC)cc3)C(=O)C2CC(=O)Nc2ccc(OC)cc2)cc1 (configuration not stated)	-16%	-10%
CCOc1ccc(C(=O)c2oc3ccccc3c2NC(=O)c2cc(-c3ccc(Cl)cc3)on2)cc1	-12%	0%
CC(=O)Nc1ccc(S(=O)(=O)Nc2nc3ccccc3nc2Cl)cc1	-10%	6%
O=[N+]([O-])c1cccc(C(=S)N2CCN(c3ccc(F)cc3)CC2)c1	?	-11%
O=C(NC1CCCc2c1cnn2-c1cc(F)cc(F)c1)c1ccc[n+]([O-])c1 (configuration not stated)	-15%	-8%

Entries from the list above containing fluorine:
SMILES	VACV mCherry inh	VACV Venus inh
CCC1=NN(C(=O)c2cccnc2)C(O)(C(F)(F)F)C1 (configuration not stated)	i	-6%
O=C(Nc1ncc(Cc2ccc(SC(F)F)cc2)s1)c1ccc(OC(F)F)cc1	-1%	?
CCc1ccc(S(=O)(=O)c2cn(C)c3cc(F)c(F)cc3c2=O)cc1	-25%	-22%
CC1(C)CC(=O)c2cc(OCC(=O)NCCCN3CCN(c4ccccc4F)CC3)ccc2O1	-4%	-21%
O=C(CSc1nnc(-c2ccc(C(F)(F)F)cn2)s1)c1ccc(Cl)cc1	0%	-18%
CCOC(=O)C(C)Sc1nc2c(cnn2-c2ccc(F)cc2)c(=O)[nH]1 (configuration not stated)	-17%	-17%
Cc1ccc(C(=O)N2CCNC(=O)C2CC(=O)Nc2ccc(F)cc2)cc1C (configuration not stated)	i	0%
O=C(CCS(=O)(=O)Cc1ccccc1)Nc1nnc(C(F)(F)F)s1	-25%	-2%
Fc1cnc(N2CCOCC2)nc1N1CCOCC1	i	-13%
O=C(CSc1nnc(CNC(=O)c2ccccc2)n1-c1ccc(F)cc1)Nc1ccccc1F	-11%	-9%
O=[N+]([O-])c1cccc(C(=S)N2CCN(c3ccc(F)cc3)CC2)c1	?	-11%
O=C(NC1CCCc2c1cnn2-c1cc(F)cc(F)c1)c1ccc[n+]([O-])c1 (configuration not stated)	-15%	-8%
